CtBP-E1A inh = CtBP/E1A binding inhibition; AlphaScreen GST-E1A/His-CtBP binding, 1536-well; stronger effect = lower value; control for the full effect not named in the record; activity change, % (test concentration not listed); actives 0.49% (n = 340,000); in the data active means activity change below about -65%; inconclusive means about -30% to -65%; inactive means above about -30%; further: on the % scale 0 is the no-effect control and ±100 the full control effect; compound concentration not given in the record
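In 5 uL wells, 23 nL compound meets equimolar GST-E1A and His-CtBP (5X stock 125 nM each) for 2 h, 37 °C. Beads (5X, 50 ug/mL) then 1 h, 37 °C, dark.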
D2 ag = agonists of human D2 dopamine receptor (beta-arrestin) | actives 0.084% (n = 360,000) | P14416 | AID 624465 | activation, % (no concentration beside the values) | DiscoveRx PathHunter D2 beta-arrestin, luminescence, 90 min; 100% = 57 uM dopamine signal; in the data active = activation above about 40%; inconclusive = about 15% to 40%; inactive = below about 15%; further: compound concentration not given in the record; the text of the record calls up to 30% inactive
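DiscoveRx PathHunter D2 beta-arrestin cells (2,100/well) attached overnight, then compound-stimulated 90 min at 37 C in HBSS/10 mM HEPES/0.1% Tween-20 buffer; beta-galactosidase complementation read by luminescence after 1 h at ambient temperature. Dopamine 57 uM final (EC100) as control.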
D2 PAM = human D2 receptor positive allosteric modulation | potentiation, % (concentration not given with the values) | AID 624464 | DiscoveRx D2 beta-arrestin cells, luminescence, 90 min; 100% = 57 uM dopamine signal | actives 0.23% (n = 360,000); active = potentiation of 50% or more; inconclusive = 30% to 50%; inactive = 30% or less;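 further: compound concentration not given in the record; tested on top of an EC20 dose of dopamine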
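PathHunter beta-arrestin assay in DiscoveRx D2 cells. Compounds were added with an EC20 of dopamine (50 nM final) for 90 min at 37 deg C. Luminescence was read 1 h after detection reagent, with 57 uM dopamine as the EC100 control.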
Six1-Eya2 inh = Six1/Eya2 interaction inhibition; AlphaScreen GST-Six1/His-Eya2 binding, biochemical; stronger effect = lower value; control for the full effect not named in the record; activity change, % (concentration not given with the values); actives 0.56% (n = 360,000); AID 651725; in the data active = activity change below about -65%; inconclusive = about -30% to -65%; inactive = above about -30%; further: on the % scale 0 is the no-effect control and ±100 the full control effect
Target sequence (O00167 whole entry, looked up): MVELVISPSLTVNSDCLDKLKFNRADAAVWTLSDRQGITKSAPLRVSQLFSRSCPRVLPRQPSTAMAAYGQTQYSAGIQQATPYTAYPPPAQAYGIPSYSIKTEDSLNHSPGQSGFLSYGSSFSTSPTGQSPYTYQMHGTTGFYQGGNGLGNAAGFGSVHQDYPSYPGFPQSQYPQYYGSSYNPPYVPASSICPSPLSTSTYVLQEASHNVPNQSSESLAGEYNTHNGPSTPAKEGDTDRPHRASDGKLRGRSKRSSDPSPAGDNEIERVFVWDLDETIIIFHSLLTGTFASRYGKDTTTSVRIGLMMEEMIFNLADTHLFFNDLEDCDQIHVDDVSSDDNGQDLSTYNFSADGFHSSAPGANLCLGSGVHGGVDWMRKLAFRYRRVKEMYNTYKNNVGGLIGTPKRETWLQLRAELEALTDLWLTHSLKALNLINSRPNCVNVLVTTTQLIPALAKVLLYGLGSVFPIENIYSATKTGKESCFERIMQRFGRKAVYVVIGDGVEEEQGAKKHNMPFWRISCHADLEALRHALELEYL
Target sequence (Q15475 whole entry, looked up): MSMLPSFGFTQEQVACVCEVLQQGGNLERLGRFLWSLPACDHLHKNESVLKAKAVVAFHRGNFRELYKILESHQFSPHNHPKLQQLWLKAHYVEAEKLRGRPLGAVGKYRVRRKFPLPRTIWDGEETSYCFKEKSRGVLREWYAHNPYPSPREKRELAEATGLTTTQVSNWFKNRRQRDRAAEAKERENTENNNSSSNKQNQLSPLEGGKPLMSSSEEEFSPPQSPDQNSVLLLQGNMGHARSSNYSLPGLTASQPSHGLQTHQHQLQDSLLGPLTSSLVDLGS
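Six1/Eya2 binding was read as AlphaScreen signal after compounds were pinned into GST-Six1 plus His-tagged Eya2 (5X stock 250/500 nM) in pH 8.0 Tris/NaCl/TCEP buffer, beads added, then incubated 1 h, 37 C, dark.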
gsp agonist = agonists of gsp mutant (McCune-Albright syndrome). Potency, µM (highest dose often 76.9 µM), inactives show at the top dose activation (cAMP increase), usual class: activators. actives 0.13% (n = 340,000). gsp mutant cells, cAMP HTRF, 30 min; control for the full effect not named in the record; active = well fitted activation curve with a large enough effect; inconclusive = small, poorly fitted or top-dose-only effect, or another doubt; inactive = no such curve, though single readings can be large or run the other way; cell line not stated here;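 further: phosphodiesterase inhibitor Ro 20-1724 added with compounds to block cAMP breakdown; potency means the concentration at half of the fitted maximal effect; nearly all actives have a fitted effect of over 60% in size; about a fifth of the inactives were tested at one dose only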
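Cells in DMEM/10% FBS with G418 were pretreated with compounds in DMSO plus […] (300 uM stock) for 30 min at 37C. cAMP was measured by HTRF (cAMP-d2 plus anti-cAMP antibody-K) after 30 min at room temperature.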
gsp antagonist = antagonizes gsp, the McCune-Albright syndrome mutation; gsp-mutant cells, cAMP HTRF, 30 min; control for the full effect not named in the record; Potency, µM (titrated, usually from 76.9 µM), inactives show at the top dose activity change, negative = inhibition, usual class: inhibitors; actives 0.4% (n = 340,000); active = falling curve of any shape with a large fitted effect; inconclusive = falling curve, mostly with a smaller effect; inactive = flat or rising curve; cell line not stated here;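 further: intracellular cAMP measured with PDE inhibitor Ro 20-1724 present during compound exposure; potency means the concentration at half of the fitted maximal effect; on the % scale 0 is the no-effect control and ±100 the full control effect; nearly all actives have a fitted effect of over 65% in size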
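G418-selected cells were plated in DMEM/10% FBS for 16-24 h at 37C, then treated with compounds plus the PDE inhibitor […] (300 uM solution added) for 30 min at 37C. Intracellular cAMP was measured by HTRF after 30 min lysis at room temperature.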
* hit, by the source's call; ? = inconclusive; . = no result given; & = joins results of further samples; [ ] = another dose, or the depositor's remark. No enrichment for hits; 1.4% or so of the library scored in one or more.

smiles	gsp agonist	D2 ag	gsp antagonist	CtBP-E1A inh	D2 PAM	Six1-Eya2 inh
COc1ccc([N+](=O)[O-])cc1NC(=O)c1cccnc1	30%	-2.6	6%	1	-5	2
COc1ccccc1C(=O)NCCC(=O)NCC(c1ccccc1)N(C)C (centres undefined)	?	-2.2	14%	1	-8	0
COc1ccc(C(=O)OCC(=O)NC2CC2)cc1S(=O)(=O)Nc1ccc(C)cc1	13%	0.2	5%	-16	-12	3
CSc1ccc(C(=O)C2CCCN(C(=O)c3nonc3C)C2)cc1 (centres undefined)	9%	0.8	-15%	0	-9	12
C=CCOC(=O)C1=C[C@H](c2csc3ccccc23)[C@@H](CCCO)[C@H](OCC)O1	.	3.7	-2%	-1	7	-1
Cn1c(COc2ccc(Cl)cc2)nnc1SCC(=O)NC1CC1	-34%[inhibitor]	-2.0	12%	3	-1	5
COCCOC1CCN(C(=O)C2CCC(=O)N(CCc3cccc(F)c3)C2)CC1 (centres undefined)	12%	3.8	7%	2	-9	-1
CCC1Nc2ncnc(N3CCN(c4ccccc4)CC3)c2N(Cc2ccccc2)C1=O (centres undefined)	.	-15&-19	-2%	-20&-20	-45&-31	-21&-20
O=C1C(=O)N(CCCn2ccnc2)C(c2ccc(Br)cc2)/C1=C(\O)c1ccc2c(c1)OCCO2 (centres undefined)	?	-3.8	15%	-22	-10	-11
COc1ccc2nc(SCc3nc(N)nc(Nc4ccccc4)n3)[nH]c2c1	18%	-1.9	26%	-3	-11	-10
CCc1nc2c(OCc3ccc(F)c(F)c3)cccn2c1N(C)C(=O)C1CC1	.	2.7	.	6	1	0
CCOc1cc(/C=N/NC(=O)c2ccncc2)ccc1OC(=O)c1ccco1	1%	0.4	-10%	-11	3	-11
COc1ccc(NC(=O)c2cc(C3CCCCN3C(=O)c3cccs3)on2)c(C)c1 (centres undefined)	.	1.8	.	-5	-2	-8
COc1ccc(C(=O)OCC(=O)C(C)(C)C)cc1S(=O)(=O)N(C)CCc1cccnc1	-24%	-2.6	-6%	0	-1	13
CCOC(=O)c1ccc(NC(=O)c2ncn3c2C(=O)NC[C@@H]3C)cc1	-16%	3.2	.	-7	2	-8
COc1cc2c(cc1OC)/C(=C/C#N)NC(C)(C)C2	2%	-2.2	9%	-2	-7	0
Cc1cc2c(cc1C)/C(=C\C(N)=O)NC(C)(C)C2	21%	-2.3	-25%	3	-19	2
Cc1cc(Cl)ccc1NC(=S)N1CCN(C(=O)C2CCCO2)CC1 (centres undefined)	1%	-2.9	8%	-3	-24	-9
CS(=O)(=O)N1CCC(Oc2ccccc2C(=O)N2CCN(CC3CC3)CC2)CC1	-27%	5.1	2%	13	-8	0
Cc1ccc(/C=N/N2C(=O)c3ccccc3NC2c2ccc(C)cc2)cc1 (centres undefined)	9%[15.4 µM]	-8.5	-12%	-9	-11	1
CS(=O)(=O)N(CC(=O)NCCSCc1c(F)cccc1Cl)c1cccc([N+](=O)[O-])c1	0%[15.4 µM]	-7.5	-3%	-23	1	-21
CCCC(=O)OCC(=O)NC1CCCc2ccccc21 (centres undefined)	-5%[15.4 µM]	-1.3	2%	-1	4	14
O=C(Cc1cccc(NC(=O)C2CCCN(C(=O)c3ccccc3)C2)c1)Nc1ccc(C(=O)N2CCCCC2)cc1 (centres undefined)	.	1.7	10%	2	.	-2
Clc1ccc(/C=N/Nc2nnc(-c3ncc[nH]3)c3ccccc23)cc1	-10%	-3.5	-17%	-21	-17	-26
O=C(NCCc1ccccc1)C1c2ccccc2C(=O)N1C1CC1 (centres undefined)	6%	1.9	-1%	1	11	4
CCCc1nc(SCc2ccccn2)c2c(=O)n(C)c(=O)n(C)c2n1	-70%	-5.7	-9%	2	-8	-2
C[C@H](CO)N1C[C@H](C)[C@@H](CN(C)S(=O)(=O)c2ccc(F)cc2)Oc2ccc(NS(=O)(=O)c3ccc(F)cc3)cc2C1=O	.	1.7	-15%	2	0	1
O=[N+]([O-])c1ccc(-c2ccc(/C=N/Nc3nc(N4CCCCC4)nc(N4CCCCC4)n3)o2)cc1	-18%[15.4 µM]	-6.7	-14%	3	1	9
Cc1ccc(S(=O)(=O)c2c(C(=O)c3ccccc3)cnc3cc4c(cc23)OCCO4)cc1	-15%	-1.8	9%	-1	-10	-13
O=C1CSC(c2ccccc2[N+](=O)[O-])N1c1ccccc1 (centres undefined)	9%[15.4 µM]	-0.1	.	5	-11	-8

Next part.
smiles	gsp agonist	D2 ag	gsp antagonist	CtBP-E1A inh	D2 PAM	Six1-Eya2 inh
CCN(CC)C(=O)c1ccc2c(c1)N(Cc1ccccc1)C(=O)CS2=O (centres undefined)	-29%	0.0	3%	-1	0	8
Cn1nc(-c2ccc(Cl)cc2)c2cc(C(=O)N3CCN(c4ccccn4)CC3)sc21	?	-5.5	-8%	7	-4	2
Cc1cccc2nc(-c3ccccc3)nc(N[C@@H](CO)c3ccccc3)c12	-1%	-5.3	?	11	-36	-18
C/C(=N/Oc1nc(C)cc(C)n1)c1ccc(Cl)cc1Cl	1%	-1.6	3%	8	-2	2
COc1ccc(/C=C/C(=O)c2cc3c(cc2N)OCO3)cc1	-9%[15.4 µM]	-5.2	.	6	-19	-2
O=Cc1cc([N+](=O)[O-])ccc1N1CCN(Cc2ccc3c(c2)OCO3)CC1	?	-3.0	-11%	-7	-14	-12
CCOC(=O)Cc1csc(NC(=S)NC(=O)c2ccccc2)n1	-25%	-6.7	-24%	19	-8	8
CCCCCn1c(=S)[nH]c2cc(C(=O)N3CCCC3)ccc2c1=O	1%[15.4 µM]	-4.6	2%	1	-4	-2
Cc1ccc(SC(C)C(=O)Nc2cccnc2)cc1 (centres undefined)	?	-3.3	3%	-5	-30	2
Cn1c(=O)c2c(nc(SCC(=O)NC3CCCC3)n2C)n(C)c1=O	49%[15.4 µM]	-2.4	12%	11	-1	7
Cc1nc2c(ncn2-c2ccccc2)c(=O)n1NC(=O)CN1CCCCC1	2%	-3.0	17%	5	-4	2
Cc1cnc(C(=O)N2CCc3c([nH]c4ccccc34)C2c2ccc(F)cc2)cn1 (centres undefined)	-10%	-3.0	-19%	.	-6	2
Clc1ccc(CSc2snnc2-c2ccccc2)c(Cl)c1	13%	-4.2	-9%	31	-11	46
CCOC(=O)C1(Cc2cccc(OC)c2)CCN(Cc2cccn2-c2ccccn2)CC1	6%[15.4 µM]	-3.4	12%	-14	-7	-12
COc1cc2c(C(=O)N3CCN(Cc4ccc5c(c4)OCO5)CC3)cn(C)c(=O)c2cc1OC	?	-0.2	11%	0	-5	-9
CCCc1ccc(C(=O)O/N=C(\N)c2ccccn2)cc1	30%	4.0	-5%	1	2	8
O=C(NCN1CCN(CCO)CC1)c1cnccn1	-1%	-3.1	5%	3	0	4
O=C(NCCc1ccc(C(F)(F)F)cc1)C1CCC(=O)N(C2CC2)C1 (centres undefined)	-9%	-6.1	13%	6	-15	-1
COc1ccc(SCCC(=O)NCc2ccncc2)cc1	10%[15.4 µM]	0.8	-2%	3	1	3
CCOC(=O)N1CCN(C(=O)C2CCCN(S(=O)(=O)c3cc(C)ccc3OC)C2)CC1 (centres undefined)	6%	-2.0	-16%	12	-7	3
Cc1ccc(Cc2c(-c3cccc(Br)c3)nc3ccc(Br)cn23)cc1	.	-1.3	.	1	-1	-1
CC(/C=N/NC(=O)CNc1n[nH]c(=O)[nH]c1=O)c1ccccc1 (centres undefined)	5%	-5.0	9%	.	-9	7
CN(C)c1ccc(NC(=O)CN2CCC(NC(=O)C3CCCCC3)CC2)cc1	4%	-4.3	-5%	0	-6	14
O=C(Nc1cc(C(F)(F)F)ccc1Cl)C(Sc1n[nH]c(=O)[nH]c1=O)c1ccccc1 (centres undefined)	-16%[15.4 µM]	4.9	-16%	2	0	2
CN(C)CCCN(Cc1cc2cc3c(cc2[nH]c1=O)OCCO3)C(=O)NC1CCCCC1	13%	-0.4	-17%	-4	-15	-1
CC(Sc1n[nH]c(N)n1)C(=O)C12CC3CC(CC(C3)C1)C2 (centres undefined)	-8%	-3.8	5%	0	6	7
Cc1ccc(S(=O)(=O)c2nc(-c3ccccc3Cl)oc2NCCCN2CCOCC2)cc1	13%[15.4 µM]	-1.8	-9%	-13	-37	-8
O=S(=O)(c1cccc(-c2nnc(SC(F)F)n2-c2ccccc2)c1)N1CCCCC1	-12%	-1.1	-1%	1	6	2
CCc1nc(SCC(=O)NCC2CCCO2)c2c(=O)n(C)c(=O)n(C)c2n1 (centres undefined)	?	-4.6	7%	-1	-7	-11
CC(=O)c1c(C)n([O-])c2ccccc2[n+]1=O	24%	-3.3	7%	1	-10	3

Profiles, quoted from the list. Order of values: gsp agonist	D2 ag	gsp antagonist	CtBP-E1A inh	D2 PAM	Six1-Eya2 inh
`O=C(NCN1CCN(CCO)CC1)c1cnccn1` as listed: -1%	-3.1	5%	3	0	4
`Cc1cnc(C(=O)N2CCc3c([nH]c4ccccc34)C2c2ccc(F)cc2)cn1` (centres undefined) as listed: -10%	-3.0	-19%	.	-6	2

Going on with the list.
smiles	gsp agonist	D2 ag	gsp antagonist	CtBP-E1A inh	D2 PAM	Six1-Eya2 inh
Cc1cc(C)cc(OCC(=O)Nc2ccc3c(c2)C(=O)c2ccccc2C3=O)c1	-16%[15.4 µM]	-1.5	9%	9	-4	-2
COc1cc(/C=N/N2C(=O)CSC2=S)cc(Br)c1O	3%[15.4 µM]	-1.4	-12%	0	0	?
Nc1nc(CN2CCN(c3ccccn3)CC2)nc(Nc2ccc(Cl)cc2)n1	-29%	41*	2%	-30	56*	?
CCc1ccccc1S(=O)(=O)Cc1ccc(C(=O)N2CCN(c3ccccn3)CC2)o1	-41%[inhibitor]	2.0	-16%	0	-5	-6
O=C(NC(NC(=S)Nc1ccccc1C(=O)O)C(Cl)(Cl)Cl)c1cccc([N+](=O)[O-])c1 (centres undefined)	-33%[inhibitor]	-1.7	-2%	-17	-8	-10
Cc1cc(=O)n2[nH]c(N3C(=O)CCC3=O)nc2n1	-44%[inhibitor]	-1.7	16%	2	-5	3
CCN1CCN(c2ccc(S(=O)(=O)N3CCOCC3)cc2NC(=O)c2sccc2C)CC1	-9%	-4.3	1%	-1	-9	5
COc1ccc(-c2csc3ncn(-c4ccccc4OC)c(=O)c23)cc1OC	-5%[15.4 µM]	-1.1	-14%	-19	-8	-11
COc1ccccc1NC(=O)COC(=O)c1cc2c(s1)CCC2	22%[15.4 µM]	-1.2	-6%	15	10	-10
O=C(CN(c1ccc(Br)cc1)S(=O)(=O)c1ccc(Cl)c([N+](=O)[O-])c1)NCCc1ccccc1	14%[15.4 µM]	-2.1	-14%	-2	-28	2

Screening results deposited in PubChem BioAssay by National Center for Advancing Translational Sciences (NCATS).
